ClpP mod = qHTS Assay for Activators of ClpP. ATP-dependent Clp protease proteolytic subunit (Bacillus subtilis (strain 168)), P80244. purified B. subtilis ClpP, FRET peptide cleavage, 20 min. Potency, µM (top dose mostly 57.5 µM), for inactives: at the highest dose activity change, negative = active. 340,000 compounds, 1.9% hits; active = well fitted falling curve with a large enough effect; inconclusive = small, poorly fitted or top-dose-only effect; inactive = no such curve, though single readings can be large or run the other way; also: potency is read from the fitted curve at half-maximal effect; the source files actives as falling curves though it sought activators and does not explain the sign; nearly all actives have a fitted effect of over 65% in size; many hits overshoot -100%
Target sequence (P80244 whole entry, looked up): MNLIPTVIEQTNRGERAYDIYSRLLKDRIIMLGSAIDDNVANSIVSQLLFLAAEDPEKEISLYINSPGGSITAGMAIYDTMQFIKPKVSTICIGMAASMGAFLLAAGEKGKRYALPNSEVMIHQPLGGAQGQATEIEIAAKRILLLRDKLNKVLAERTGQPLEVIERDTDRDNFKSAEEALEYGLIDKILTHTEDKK
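ClpP 10 microg/mL final, pH 8 Tris/KCl buffer with BSA, glycerol, Tween-20; compound pinned in; FRET-FV substrate; RT 20 min; Ex320/Em430; ΔFRET vs ADEP 5.8 microM, DMSO, no enzyme.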
gsp antagonist = gsp mutant antagonism; Potency, µM (top dose mostly 76.9 µM), for inactives: at the top dose activity change, negative = inhibition, most hits filed as inhibitors; 340,000 compounds, 0.4% hits; gsp-mutant cells, cAMP HTRF, 30 min; control for the full effect not named in the record; active = falling curve of any shape with a large fitted effect; inconclusive = falling curve, mostly with a smaller effect; inactive = flat or rising curve; cell line not stated here;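 also: intracellular cAMP measured with PDE inhibitor Ro 20-1724 present during compound exposure; potency is read from the fitted curve at half-maximal effect; % is scaled to controls: 0 for no effect and ±100 for the full control effect; nearly all actives have a fitted effect of over 65% in size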
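Cells, 2000/well, grown 16–24 h in DMEM 10% FBS with 0.5 mg/ml G418, then compounds plus […] (300 uM addition stock), 30 min at 37C. cAMP read by HTRF (cAMP-d2 and anti-cAMP antibody-K in lysis buffer) after 30 min RT.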
Menin MLL FP FL = displaces fluorescein MLL peptide from human menin | Fluorescence polarization, fluorescein-MLL peptide displacement from menin | 290,000 tested, under 10 active | FP activity change, % at 61.4 µM; inconclusive = falling polarisation curve, or a change in total fluorescence; inactive = total fluorescence flat and polarisation flat or rising; no compound was filed as active; the % refers to the polarisation; negative = inhibition;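 also: % of control where 0% means no effect; inhibitors lower the polarisation; unlabelled MLL peptide was the positive control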
TRPML1 agonist = activates the human TRPML1 channel; Q9GZU1; TRPML1-expressing cells, Ca2+ dye fluorescence, FDSS; host cell line not named in the record; reference of the full effect not given here; activation, % (concentration not given with the values); 410,000 compounds, 0.12% hits; AID 624414; in the data active = activation above about 50%; inconclusive = about 30% to 50%; inactive = below about 30%; also: 0% is about no effect; the text of the record puts the active cut at 80%
Target sequence (Q9GZU1 whole entry, looked up): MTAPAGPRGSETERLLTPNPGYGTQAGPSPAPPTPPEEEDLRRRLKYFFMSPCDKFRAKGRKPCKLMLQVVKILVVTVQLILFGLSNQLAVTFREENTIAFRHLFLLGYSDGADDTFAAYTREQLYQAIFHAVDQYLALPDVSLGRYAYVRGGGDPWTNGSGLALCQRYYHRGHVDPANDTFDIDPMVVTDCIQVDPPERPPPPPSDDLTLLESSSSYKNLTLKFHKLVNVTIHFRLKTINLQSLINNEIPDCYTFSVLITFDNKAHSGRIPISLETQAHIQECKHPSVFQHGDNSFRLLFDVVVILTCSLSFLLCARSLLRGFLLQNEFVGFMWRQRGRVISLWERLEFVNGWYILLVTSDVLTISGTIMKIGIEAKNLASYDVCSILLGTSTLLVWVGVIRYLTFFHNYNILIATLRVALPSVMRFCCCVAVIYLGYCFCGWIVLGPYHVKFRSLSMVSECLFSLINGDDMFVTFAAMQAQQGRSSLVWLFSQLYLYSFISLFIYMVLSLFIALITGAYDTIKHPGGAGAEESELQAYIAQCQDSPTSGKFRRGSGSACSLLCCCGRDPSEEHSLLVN
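Agonist activity was taken from a 110 s kinetic Ca2+ dye read on the FDSS after pinning compounds onto TRPML1-DL cells. The cells were seeded at 1,500/well with Tet inducer, incubated about 16 h, then dye-loaded at room temperature.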
TRPML1 blocker = human mucolipin-1 channel inhibition | AID 624415 | activity change, negative = inhibition, % (no concentration beside the values) | 390,000 compounds, 0.02% hits | TRPML1-inducible cells, Ca2+ dye fluorescence, FDSS; hits give low values; inhibition of EC80 agonist-evoked calcium signal; in the data active means activity change below about -50%; inconclusive means about -30% to -50%; inactive means above about -30%;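 also: stimulus is agonist 54-4 at its EC80 concentration; % is scaled to controls: 0 for no effect and ±100 for the full control effect; compound concentration not given in the record; the text of the record puts the active cut at -80%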
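TRPML1-DL cells, Tet-induced overnight (~16 h, 37 °C) at 1,500 cells/well, were loaded with Ca8 no-wash dye plus quencher for 45-90 min at room temperature. Compounds were pinned during FDSS kinetic reading; agonist 54-4 at EC80 (4 uM final) then added.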
gsp agonist = gsp mutant agonism. gsp mutant cells, cAMP HTRF, 30 min; control for the full effect not named in the record. Potency, µM (titrated, usually from 76.9 µM), for the others: at the top dose activation (cAMP increase), actives largely listed as activators. 340,000 compounds, 0.13% hits. AID 624287; active = well fitted activation curve with a large enough effect; inconclusive = small, poorly fitted or top-dose-only effect, or another doubt; inactive = no such curve, though single readings can be large or run the other way; cell line not stated here;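 also: phosphodiesterase inhibitor Ro 20-1724 added with compounds to block cAMP breakdown; potency is read from the fitted curve at half-maximal effect; nearly all actives have a fitted effect of over 60% in size; about a fifth of the inactives were tested at one dose only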
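Cells stably selected in G418 were plated at 2000/well, grown 16-24 hr, then given compounds in DMSO with the PDE inhibitor […] (300 uM solution added) for 30 min at 37C; cAMP was read by HTRF.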
* hit, by the source's call; ? = inconclusive; / = no result given; [ ] = another dose, or the depositor's remark.

SMILES	ClpP mod	gsp antagonist	Menin MLL FP FL	TRPML1 agonist	TRPML1 blocker	gsp agonist
CCOC(=O)c1c(NC(=O)C(NCCN(C)C)c2ccccc2)sc2c1CCCC2 (stereo unspecified)	/	6.0%	6.2	0.0	-8.1	-7.7%[15.4 µM]
Cc1onc(-c2ccccc2)c1C(=O)Nc1nnc(-c2ccncc2)s1	31.6µM*	?	3.7	0.7	?	-11.2%
COc1cc2c(cc1OC)C(c1ccc(N(C)C)cc1)CC(=O)N2 (stereo unspecified)	10µM*	-12.1%	7.6	0.6	-3.7	-2.0%
COc1ccc(C(O)Cc2nc3ccccc3n2C)cc1OC (stereo unspecified)	-0.4%	3.2%	5.9	-0.1	-1.4	5.7%
Cc1cc2c(cc1S(=O)(=O)CCC(=O)N1CC(C)CC(C)C1)OCC(=O)N2 (stereo unspecified)	-0.4%	4.3%	1.4	0.2	-0.3	-1.1%
COCC(C)N1CC(O)=C(c2nc(-c3ccc(Cl)cc3)cs2)C1=N (stereo unspecified)	/	/	-5.6	-0.9	-26.2	-0.7%[15.4 µM]
CC1CC2(CCCC2)Nc2ccc(F)cc21 (stereo unspecified)	-9.9%	-2.9%	2.9	/	/	-16.5%
CCCS(=O)(=O)NCCc1sc2nc(-c3ccc(Cl)cc3)nn2c1C	-24.0%	/	/	0.4	-6.2	/
CC(=O)c1nn(-c2ccc(OC(F)(F)F)cc2)nc1Nc1ccc(C)cc1	-1.6%	/	/	-0.2	-10.9	/
CC1(C)CC2CC(C)(CN2C(=O)COC(=O)CNC(=O)c2ccc(Cl)c(Cl)c2)C1 (stereo unspecified)	25.1µM*	?	-1.1	-0.1	-16.9	-56.3%[inhibitor]
CCN(CC)S(=O)(=O)c1ccc(C(=O)NNC(=O)C2CCN(S(=O)(=O)c3ccc(Cl)cc3)CC2)cc1	0.2%	2.1%	1.1	2.7	15.4	-49.2%
CCCn1c(C)cc(C(=O)COc2ccc(C)nc2[N+](=O)[O-])c1C	0.5%	7.5%	5.3	-0.5	7.7	-2.7%
CC(CC(=O)Nc1nc2ccccc2[nH]1)n1ccnc1 (stereo unspecified)	-0.3%	6.6%	/	-0.7	13.8	-2.7%[15.4 µM]
O=C(NCc1ccccc1)c1ccc2c(c1)N(Cc1ccccc1F)C(=O)c1ccccc1S2=O (stereo unspecified)	-2.8%	/	/	2.2	-7.0	/
COc1ccc([C@H]2C[C@@H](n3cc(COC(=O)c4ccccc4)nn3)[C@H](O)CN2Cc2cccs2)cc1	-0.6%	/	/	0.5	15.2	4.7%
CCc1cc(C(=O)NC(C)c2ccccc2)no1 (stereo unspecified)	0.8%	/	/	-1.1	20.3	/
COc1ccc(S(=O)(=O)NCC(c2ccc(N(C)C)cc2)N2CCc3ccccc32)cc1OC (stereo unspecified)	-22.9%	/	/	0.8	15.4	/
COC(=O)Cc1ccc(NC(=O)c2ccccc2Br)cc1	/	7.9%	-1.0	-0.8	5.3	9.8%[15.4 µM]
Cc1ccc(S(=O)(=O)C(c2ccccc2)c2c(C)noc2C)cc1 (stereo unspecified)	1.7%	-9.5%	1.0	1.2	3.0	0.6%
O=C(NCc1ccco1)/C(=C/c1cccnc1)NC(=O)c1cccc(Br)c1	-0.8%	-3.7%	1.2	-0.4	20.9	23.2%
Cc1cc(Cl)ccc1OCCCC(=O)Nc1ccc(S(=O)(=O)Nc2ncccn2)cc1	0.5%	?	2.6	-1.2	7.8	12.0%[15.4 µM]
COc1ccc(N2CCN(C3CCCN(C(=O)C4=C(C)OCCO4)C3)CC2)cc1 (stereo unspecified)	-3.7%	0.6%	/	0.3	12.1	-9.3%
CCN(CC)c1ccc(NC(=O)c2ccc(Br)o2)c(C)c1	-0.4%	-8.8%	-0.1	1.1	-2.9	-5.3%
COC(=O)c1ccc(NC(=O)c2cn(-c3ccccc3)nc2-c2ccncc2)cc1	104.1%	-22.6%	-3.1	2.8	-5.4	-16.0%
CN(C)c1ccc(C(=O)OCC(=O)N2CCCC2)cc1	/	2.9%	-3.9	0.3	-2.9	-1.5%[15.4 µM]
CC(C(=O)NN=C(c1ccccc1)c1ccccc1)N1CCCC1 (stereo unspecified)	1.4%	1.0%	3.7	0.5	-12.9	0.3%
C=C(C)COc1ccc(-c2[nH]ncc2Oc2cccc(OC)c2)c(O)c1	-6.4%	-12.7%	4.9	3.6	-18.1	8.1%
C#CCN(C[C@@H]1[C@@H](OC(=O)NCCCCCC)[C@@H](OC(=O)NCCCCCC)Cn2c(=O)n(CCCCCC)c(=O)n21)S(=O)(=O)c1ccc(C)cc1	-2.7%	/	/	1.0	-11.6	-29.6%
COc1ccc(Cl)cc1NC(=O)CN(C)C(=O)CN1C(=O)NC(C)(C)C1=O	1.0%	10.2%	/	-0.6	34.9	-2.1%
Cc1cccc(CN2CCN(CC(=O)NCCCN3CCN(c4ccc(F)cc4)CC3)C2=O)c1	1.2%	11.6%	1.1	1.4	-1.6	14.0%
O=C(Nc1ccccc1)C1=C[C@@H](c2ccc(C(F)(F)F)cc2)C[C@@H](OCCCCO)O1	1.2%	-9.0%	/	-0.9	1.6	-27.4%
COCc1cc(C)n(CC(=O)Nc2ccc(NC(C)=O)cc2)c(=O)c1C#N	?	/	/	2.0	13.8	/
O=C(c1ccncc1)N1CCN(S(=O)(=O)c2ccccc2Br)CC1	0.2%	-11.4%	/	0.9	4.2	1.5%
Cc1cc(Br)ccc1OCC(=O)NNC(=O)c1cnccn1	1.9%	-0.9%	-1.6	-0.8	20.7	-15.3%
CCOc1ccc(-c2nonc2NC(=O)c2oc3cc(C)ccc3c2C)cc1OCC	-0.1%	/	/	-0.3	-12.3	/
O=c1[nH]c(NCc2ccccc2)nc2c1CCC2	-5.6%	-1.1%	-4.2	1.1	13.7	-25.8%
CCCCN(C)C(=O)Cn1c(=O)oc2cc(S(=O)(=O)N3CC(C)CC(C)C3)ccc21 (stereo unspecified)	-3.1%	-0.5%	-0.5	0.8	17.1	-55.0%[inhibitor]
COc1cccc(C2=NC(C)(C)NC(c3ccccc3O)C2)c1 (stereo unspecified)	-1.7%	10.0%	1.4	-0.4	-1.2	-9.4%
COCCSc1nnc(NC(=O)CSc2ccccc2)s1	-1.7%	2.1%	-0.2	-0.3	2.6	7.6%
CCOc1ccc(NC(=O)C(NS(=O)(=O)c2ccc3c(c2)CCN3C(C)=O)C(C)C)cc1 (stereo unspecified)	-2.5%	/	/	0.9	13.7	/
N/C(Cc1ccc([N+](=O)[O-])cc1)=N\OC(=O)c1ccc(Br)cc1	2.1%	8.2%	3.8	-0.7	0.0	-4.5%[15.4 µM]
CCOC(=O)C1CCCCN1C(=O)CCc1c(C)nc2ncnn2c1C (stereo unspecified)	1.6%	10.3%	4.2	-0.3	25.6	?
O=C(/C=C/c1ccccc1)NC(=S)Nc1ccc(N2CCOCC2)cc1	1.0%	5.3%	-0.9	0.8	-8.9	-1.4%
Cc1ccc(C(=O)N/N=C\c2cc3c(cc2Br)OCO3)cn1	/	8.0%	0.4	-0.1	22.3	4.1%
CCN(C(=O)CCS(=O)(=O)c1cccc2nonc12)c1ccc(F)cc1	/	4.3%	2.8	-0.3	8.2	-4.5%[15.4 µM]
COc1ccccc1C(=O)Nc1nc(-c2ccccc2)ns1	-3.4%	/	/	1.9	4.5	/
C/C(=N\NC(=S)NCc1ccccc1)c1ccc2c(c1)OCCO2	-5.4%	-21.8%	1.4	2.6	-5.3	-123.0%[inhibitor]
CS(=O)(=O)N1N=C(c2ccco2)CC1c1ccc(Cl)cc1 (stereo unspecified)	-3.5%	-5.7%	3.9	0.5	-23.1	24.7%
CCOC(=O)c1c(C)oc2ncnc(N3CCN(c4ccccc4F)CC3)c12	-0.8%	/	/	-1.2	-4.2	/
COc1cc(C(=O)NCC(c2ccco2)N2CCc3ccccc3C2)cc(OC)c1OC (stereo unspecified)	?	2.7%	/	-0.8	-27.1	-50.2%[inhibitor]
CSc1ccc(C(=O)NCC(c2ccco2)N(C)C)cc1[N+](=O)[O-] (stereo unspecified)	/	-5.5%	-0.4	0.4	22.1	19.0%
O=C(NC(=O)c1ccccc1)Nc1ccc(-c2cnco2)cc1	0.1%	4.0%	1.3	0.0	-3.1	-4.2%[15.4 µM]
COc1ccc(Cl)cc1NC(=O)C1CC(c2c(F)cccc2Cl)=NO1 (stereo unspecified)	-1.3%	-17.5%	-0.5	0.6	15.7	-0.1%
COc1ccccc1OCCNC(=O)c1cc(C2CC2)nc2c1cnn2C(C)C	-19.1%	8.4%	/	3.1	9.3	?
CCOC(=O)/C=C/C(=O)Nc1ccc(S(=O)(=O)Nc2nccs2)cc1	-8.6%	15.9%	4.2	-1.0	1.5	-2.5%[15.4 µM]
COc1cccc(C(=O)OCC(=O)NCc2ccc3c(c2)OCO3)c1OC	-0.3%	1.4%	/	0.8	-2.9	-9.7%[15.4 µM]
CN(C(=O)Cn1nnc(-c2ccc(F)cc2)n1)C1CCS(=O)(=O)C1 (stereo unspecified)	-0.3%	-4.4%	/	0.1	-8.2	13.1%
O=[N+]([O-])c1nn(-c2ccc3c(c2)OCCO3)n(O)c1=NC1CCCCC1	-0.4%	-18.6%	3.6	2.5	-0.8	2.0%
CC(C)(C)NC(=O)CSc1nnc(Cc2ccccc2)n1CC1CCCO1 (stereo unspecified)	0.4%	2.8%	-5.3	1.0	13.7	-5.8%
OCCC1CN(Cc2cnc(-c3ccc(Cl)cc3)nc2)CCN1C1CCCC1 (stereo unspecified)	/	17.4%	2.2	0.1	-9.6	0.2%[15.4 µM]
Other results:
SMILES	ClpP mod	gsp antagonist	Menin MLL FP FL	TRPML1 agonist	TRPML1 blocker	gsp agonist
Cc1ccc(NC(=O)CC2Nc3cc(C)c(C)cc3NC2=O)c(C)c1 (stereo unspecified)	-14.3%	/	/	2.0	-12.7	/
CC(=O)c1cccc(NC(=O)c2ccc3c(c2)OCO3)c1	-0.4%	6.3%	-0.9	0.2	-12.9	1.2%[15.4 µM]
O=C(COc1ccc(Cl)cc1Cl)Nc1ccccc1F	1.9%	-5.1%	/	1.1	31.0	-22.2%[15.4 µM]
COc1ccc(OC)c(CCNC(=O)c2cnn(-c3ccccc3)c2-n2cccc2)c1	-2.9%	/	/	0.1	0.5	/
COc1ccc(N2CCN(C(=O)COC(=O)c3oc4ccc(OC)cc4c3C)CC2)cc1	25.1µM*	-23.5%	/	-0.2	-3.2	11.3%
COc1ccc(C(=O)NCCc2cccc(Cl)c2)cc1OC1CCN(C(C)=O)CC1	-2.9%	4.0%	/	0.2	8.0	0.3%[15.4 µM]
CC1CCCN(CC(=O)NC(=O)NC2CCCCC2)C1 (stereo unspecified)	-0.4%	9.5%	/	0.2	-1.2	6.8%
Cn1c(=O)c2c(ncn2CC(=O)NC[C@H]2O[C@@H](n3cnc4c(N)ncnc43)[C@H](O)[C@@H]2O)n(C)c1=O	-0.7%	8.7%	/	-0.9	1.6	/

Compound activity from PubChem.
